# Bioassay records (PubChem)
# E coli growth = E. coli growth inhibition; Escherichia coli growth, OD600, 23 h; stronger effect = lower value; OD600 absorbance (no concentration beside the values); actives 0.21% (n = 330,000); AID 1053175;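 active means OD600 absorbance below the run mean of sample wells minus 3.6 SD, in any replicate, cut at about 0.56 in these data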;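 further: stock transfer was 300 nL into about 60 µL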
# The depositor's hits bear a star; & = joins results of further samples. Only part of the results is shown; rates above refer to the full screens.
SMILES,E coli growth
COc1cc(C=CC(=O)c2ccc([N+](=O)[O-])o2)ccc1O,0.55
COc1ccc(CN2CCC(=O)N(C(CO)c3ccccc3)CC2)cc1 (stereo unspecified),0.7
CC=CC(=O)Nc1cccc(C2=NOC3(C2)CC(C(N)=O)N(C(=O)C=CC)C3)c1 (stereo unspecified),0.66
CCOC(=O)C1C2COc3cc(OC)ccc3C2N2C(=O)N(c3ccc(F)cc3)C(=O)[C@]12C (stereo partly specified),0.73&0.7
O=C(Nc1ccc(Cl)c(C(F)(F)F)c1)C1CC=CC2CCN(Cc3ccc(Cl)c(Cl)c3)C(=O)C21 (stereo unspecified),0.64
COC(=O)[C@]1(CC(C)C)NC(c2ccc(-c3ccc4c(c3)OCO4)cc2)C2C(=O)N(C)C(=O)C21 (stereo partly specified),0.7
N#CC(=Cc1ccc(O)c(O)c1)C(=O)N1CCc2ccccc21,0.69
COc1cc(F)cc(C2=CC(=O)CC(c3ccc(F)cc3)C2)c1 (stereo unspecified),0.68
C#CCOCCOCCOCCNc1nc(N2CCN(C(=O)C(C(C)CC)n3cc(C(N)CO)nn3)CC2)nc(N2CCN(C(=O)C(C(C)CC)n3cc(C(N)COC(=O)C(F)(F)F)nn3)CC2)n1 (stereo unspecified),0.71
CN(CC=Cc1ccccc1)Cc1cccc2ccccc12,0.53
CNCC1Oc2c(NS(C)(=O)=O)cccc2C(=O)N(C(C)CO)CC1C (stereo unspecified),0.71
COc1ccc(CN2CC(=O)N3C4c5ccc(OC)cc5OCC4C(c4ccccc4)[C@]3(C)C2=O)cc1 (stereo partly specified),0.7
COc1cccc(N2C(CC(C)=O)c3ccc(C=CC(C)=O)cc3S2(=O)=O)c1 (stereo unspecified),0.64
NC1=NCC(c2ccccc2)N1CCc1cc(C(F)(F)F)cc(C(F)(F)F)c1 (stereo unspecified),0.62
CCOC1OC(C(=O)N2CCN(Cc3ccc4c(c3)OCO4)CC2)=CC(c2ccc(Br)cc2)C1CCCO (stereo unspecified),0.73&0.68
CN1C(=O)C(O)(CC(=O)C=CC=Cc2ccccc2)c2ccccc21 (stereo unspecified),0.68
COc1ccc(C2C=CCN(C(=O)CC(C)(C)C)C(C)C(=O)N2Cc2ccc(F)cc2)cc1 (stereo unspecified),0.71
CCOC(=O)c1ncn2c1C1CCNC1C(=O)c1cc(OC)ccc1-2 (stereo unspecified),0.68
CCC(C)C(C(=O)N1CCN(C(=O)OC(C)(C)C)CC1)n1cc(C(CO)NC(=O)OC(C)(C)C)nn1 (stereo unspecified),0.7
COc1ccccc1CN1C2CCCC1CC(NC(=O)C=Cc1ccccc1)C2 (stereo unspecified),0.68
COc1ccc(C(N)=NOC(=O)c2ccco2)cc1OC,0.71
CCOC(=O)C1C2COc3ccccc3C2N2C(=O)C(C)NC(=O)[C@@]12C (stereo partly specified),0.7
CC(C)(C)CN1C(=O)C(=O)NCC1Cc1ccc(O)cc1 (stereo unspecified),0.67&0.64
CCOC(=O)C1C2COc3cc(OC)ccc3C2N2C(=O)N(c3cccc(C)c3)C(=O)[C@@]12C (stereo partly specified),0.67
COc1cc(C=CC(=O)O)cc(S(=O)(=O)NCCCC(=O)O)c1OC,0.73
Cc1cccc(CN2C[C@]34CCC(CC3S2(=O)=O)O4)c1 (stereo partly specified),0.7
CC(NC(=O)c1ccc(Cl)cc1)C(=O)NCCc1ccc(S(N)(=O)=O)cc1 (stereo unspecified),0.72
COC(=O)CN1C(=O)C2C(C)C3=C4C(CC(C(=O)OC)=CC(C(=O)OC)C4[C@](C)(NC(=O)c4ccccc4)C3=O)C2C1=O (stereo partly specified),0.71
Cc1cc(C(=O)Nc2cccc3c2OC(CN(C)S(C)(=O)=O)C(C)CN(C(C)CO)C3=O)n(C)n1 (stereo unspecified),0.7
COC(=O)C1=C(C(=O)OC)C2Nc3ccccc3[C@@]23CC(C(=O)OC)N(C(=O)c2cc(C)oc2C)C3=N1 (stereo partly specified),0.66
CC(C)(C)CN1CCNCC1Cc1ccc(O)cc1 (stereo unspecified),0.7
CN1C(=CC=NNC(=O)c2ccc(O)cc2)C(C)(C)c2ccccc21,0.7
CCCSc1ccc(C2N[C@@](C)(C(=O)OC)C3C(=O)N(CC)C(=O)C23)cc1 (stereo partly specified),0.66
Cc1nc2ccccc2c(=O)n1NC(=O)C=Cc1ccccc1Cl,0.7
O=C1NC(=Nc2ccccc2)SC1=Cc1cccn1-c1ccccc1,0.74
O=C(CCCCO)CCCCCCCCC1NC(CO)C(O)C1OC1OC(CO)C(O)C(O)C1O (stereo unspecified),0.7
C#CCOCCOCCOCCNc1nc(N2CCN(C(=O)C(Cc3ccc(O)cc3)n3cc(C(N)CC(C)C)nn3)CC2)nc(N2CCN(C(=O)C(CCC(=O)O)n3cc(C(N)C(C)CC)nn3)CC2)n1 (stereo unspecified),0.7
Nc1ccn(CC(=O)NC(CO)Cc2c[nH]c3ccccc23)c(=O)n1 (stereo unspecified),0.7
CC1CN(C(C)CO)C(=O)c2cc(NC(=O)C3CCCCC3)ccc2OC1CN(C)S(=O)(=O)c1ccc(F)cc1 (stereo unspecified),0.69
O=C(CC1CC=CCCCC(=O)OC(c2ccccc2)CNC1=O)NCCO (stereo unspecified),0.69
CSCCC(NC(=O)NCc1ccc(F)cc1)C(=O)O (stereo unspecified),0.67
CC1CN(C(C)CO)C(=O)c2cccc(NC(=O)C3CCCCC3)c2OC1CN(C)Cc1ccc(C(=O)Nc2ccccc2N)cc1 (stereo unspecified),0.71
COCC=CC1=CC(=O)CC(c2ccc3c(c2)OCO3)C1 (stereo unspecified),0.63
CCCCNC(=O)OC1CC2CCN3C(=O)CCCC(C1Cc1ccccc1)C23 (stereo unspecified),0.66
CCCC=C1CCCOC(C(=O)NCc2ccc(C)o2)(C(F)(F)F)C1 (stereo unspecified),0.67
O=[N+]([O-])C(Cl)=CC(=C(N1CCCCC1)N1CCCCC1)[N+](=O)[O-],0.69
O=C(NC1CCCC1)c1cccc2c1C(=O)c1ccc(C=Cc3ccccc3)cc1S2(=O)=O,0.72
COc1ccc(-c2coc3cc(OC4OC(CO)C(O)C(O)C4O)c(OC)cc3c2=O)cc1 (stereo unspecified),0.67
COc1ccc2c(c1)OC(c1cccc(C(F)(F)F)c1)C(OC(=O)NC1CCCc3ccccc31)C2=O (stereo unspecified),0.72
O=C(NCc1ccccc1)C1=CC(c2ccc(C(F)(F)F)cc2)CC(OCc2ccc(CO)cc2)O1 (stereo unspecified),0.7
COc1ccc(NC(=O)C=Cc2cc(Br)ccc2OC)cc1,0.68
COc1ccc(NC(=O)Nc2ccc3c(c2)C(=O)N(C(C)CO)CC(C)C(CN(C)S(=O)(=O)c2ccccc2)O3)cc1 (stereo unspecified),0.71
COC(=O)c1cccc(C23CC4(C2)C(CN(Cc2ccc(-c5ccccc5)cc2)C4c2ccccc2)C3c2ccc(Cl)nc2)c1 (stereo unspecified),0.72
COc1cc(CCN2C(=O)NC(c3cccc(C(F)(F)F)c3)C(C(C)=O)=C2C)cc(OC)c1OC (stereo unspecified),0.62
C#CCNC(=O)C1=CC(C(C)(C)C)CC(OCc2ccc(CO)cc2)O1 (stereo unspecified),0.69
CC1(C)OC2C(CO)OC(n3cnc4c(N)ncnc43)C2O1 (stereo unspecified),0.67
CCN1CC2C3C(=O)N(Cc4ccccc4)C(=O)C3[C@](C)(C1=O)N2C(=O)c1ccc(Cl)cc1 (stereo partly specified),0.69
CC(C)C1NC(=O)c2cc([N+](=O)[O-])cc(I)c2NCCCC(C(N)=O)NC(=O)C(CO)NC1=O (stereo unspecified),0.69
COc1cc(C=CC(=O)O)cc(OC)c1OC,0.67
CC(=O)N1C(Cc2ccccc2)C=C[C@]1(C)C(=O)NCCN1CCOCC1 (stereo partly specified),0.72

# 2 records picked at random from the list so far:
SMILES,E coli growth
CCN1CC2C3C(=O)N(Cc4ccccc4)C(=O)C3[C@](C)(C1=O)N2C(=O)c1ccc(Cl)cc1 (stereo partly specified),0.69
CC(C)C1NC(=O)c2cc([N+](=O)[O-])cc(I)c2NCCCC(C(N)=O)NC(=O)C(CO)NC1=O (stereo unspecified),0.69

# The list continues:
SMILES,E coli growth
COc1ccc(-c2oc3cccnc3c2C=Cc2ccc(OC)c(OC)c2)cc1,0.7
CC1(C)c2ccccc2N2CCC(=O)NC21C=Cc1ccco1 (stereo unspecified),0.65
CCN1C(=O)C2C(c3ccc(-c4cccc(Cl)c4)cc3)N[C@@](Cc3ccccc3)(C(=O)OC)C2C1=O (stereo partly specified),0.74
CCCCC(CNC(CNC)C(C)CC)NCCC12CCC(CC1)C2 (stereo unspecified),0.69
COC(=O)C1=CC(C(=O)OC)C2C3=C(C(=O)[C@@]2(C)NC(=O)c2ccccc2)C(c2ccccc2)n2c(=O)n(-c4ccccc4)c(=O)n2C3C1 (stereo partly specified),0.69
Cc1ccccc1S(=O)(=O)N1C(c2ccc(Cl)cc2)CC=C(C(=O)O)C1c1ccccc1 (stereo unspecified),0.66
CC=CC=CC(=O)Nc1cccc(C2=NOC3(C2)CC(C(N)=O)N(C(=O)c2ccccc2C(=O)c2ccccc2)C3)c1 (stereo unspecified),0.69
CC(C)CC(NC(=O)OC(C)(C)C)C(=O)NC(CO)C(O)C1CC1C(=O)NC1CCCCC1 (stereo unspecified),0.69
COC(=O)C(C)C1C[C@]1(C)C(NC(=O)OCc1ccccc1)c1ccccc1 (stereo partly specified),0.65
CC(C)=CC(=O)OC1C2C(CC(C)C3C(O)CC(=O)[C@@]13C)OC(=O)C2C (stereo partly specified),0.65
O=C(Nc1ccccc1)C1=CC(c2ccccc2)CC(OCc2ccc(CO)cc2)O1 (stereo unspecified),0.71&0.69
O=S1(=O)C2CC3C=C[C@]2(CN1Cc1ccc(C(F)(F)F)cc1)O3 (stereo partly specified),0.69
O=C(C=C1NC2(CCCC2)Cc2ccccc21)N1CCOCC1,0.68
CC(C(=O)OCC(=O)Nc1cc(S(=O)(=O)N2CCOCC2)ccc1Cl)N1C(=O)C2CCCCC2C1=O (stereo unspecified),0.65
CC(NC(=O)c1nc[nH]c1C(=O)NC(CCCCN)C(=O)OC(C)(C)C)C(=O)OC(C)(C)C (stereo unspecified),0.65
CC(C)(C)OC(=O)N1CCN(C(=O)c2[nH]cnc2C(=O)NC(Cc2ccccc2)C(=O)OCc2ccccc2)CC1 (stereo unspecified),0.67
Cc1nc2ccccn2c1C(O)=C1C(=O)C(=O)N(CCN2CCOCC2)C1c1cccnc1 (stereo unspecified),0.68
O=C(O)CCCCCN1C(=O)C(O)=C(C(=O)C=Cc2ccccc2)C1c1cccc([N+](=O)[O-])c1 (stereo unspecified),0.72
O=C(C1CC=CC2CCN(Cc3ccccc3)C(=O)C21)N1CCOCC1 (stereo unspecified),0.69
CC1=CC(=NN=C2NC(=O)C(CC(=O)Nc3ccccc3F)S2)CC(C)(C)C1 (stereo unspecified),0.7
CC1=C(C(=O)OC(C)C)C(C=Cc2ccccc2)NC(=O)N1 (stereo unspecified),0.72
C=CCN1c2ccccc2[C@]23CC(C(=O)OC)N(C(=O)NC4CCCC4)C2=NC(C(=O)OC)=C(C(=O)OC)C13 (stereo partly specified),0.74
COc1ccc(CNC(=O)C2CC=CC3CCN(Cc4ccc(Cl)c(Cl)c4)C(=O)C32)cc1 (stereo unspecified),0.69
CCOC(=O)CN1C(=O)SC(=Cc2ccc(OC)c([N+](=O)[O-])c2)C1=O,0.72
Cc1cccc(C(N)=NOC(=O)c2ccco2)c1,0.7
CC(=O)CC1c2cc(F)ccc2S(=O)(=O)N1c1ccc(N(C)C)cc1 (stereo unspecified),0.68
NC(=NOC(=O)Nc1ccc(Cl)cc1)c1ncc(C(F)(F)F)cc1Cl,0.62
COC(=O)[C@]1(C)NC(c2ccc(-c3ccc(F)cc3)cc2)C2C(=O)N(C)C(=O)C21 (stereo partly specified),0.68
CC1(C)SC2C(NC(=O)COc3ccccc3)C(=O)N2C1C(=O)OCc1ccccc1 (stereo unspecified),0.66

# Gathered by group, those above containing fluorine.
SMILES,E coli growth
CCOC(=O)C1C2COc3cc(OC)ccc3C2N2C(=O)N(c3ccc(F)cc3)C(=O)[C@]12C (stereo partly specified),0.73&0.7
O=C(Nc1ccc(Cl)c(C(F)(F)F)c1)C1CC=CC2CCN(Cc3ccc(Cl)c(Cl)c3)C(=O)C21 (stereo unspecified),0.64
COc1cc(F)cc(C2=CC(=O)CC(c3ccc(F)cc3)C2)c1 (stereo unspecified),0.68
C#CCOCCOCCOCCNc1nc(N2CCN(C(=O)C(C(C)CC)n3cc(C(N)CO)nn3)CC2)nc(N2CCN(C(=O)C(C(C)CC)n3cc(C(N)COC(=O)C(F)(F)F)nn3)CC2)n1 (stereo unspecified),0.71
NC1=NCC(c2ccccc2)N1CCc1cc(C(F)(F)F)cc(C(F)(F)F)c1 (stereo unspecified),0.62
COc1ccc(C2C=CCN(C(=O)CC(C)(C)C)C(C)C(=O)N2Cc2ccc(F)cc2)cc1 (stereo unspecified),0.71
CC1CN(C(C)CO)C(=O)c2cc(NC(=O)C3CCCCC3)ccc2OC1CN(C)S(=O)(=O)c1ccc(F)cc1 (stereo unspecified),0.69
CSCCC(NC(=O)NCc1ccc(F)cc1)C(=O)O (stereo unspecified),0.67
CCCC=C1CCCOC(C(=O)NCc2ccc(C)o2)(C(F)(F)F)C1 (stereo unspecified),0.67
COc1ccc2c(c1)OC(c1cccc(C(F)(F)F)c1)C(OC(=O)NC1CCCc3ccccc31)C2=O (stereo unspecified),0.72
O=C(NCc1ccccc1)C1=CC(c2ccc(C(F)(F)F)cc2)CC(OCc2ccc(CO)cc2)O1 (stereo unspecified),0.7
COc1cc(CCN2C(=O)NC(c3cccc(C(F)(F)F)c3)C(C(C)=O)=C2C)cc(OC)c1OC (stereo unspecified),0.62
O=S1(=O)C2CC3C=C[C@]2(CN1Cc1ccc(C(F)(F)F)cc1)O3 (stereo partly specified),0.69
CC1=CC(=NN=C2NC(=O)C(CC(=O)Nc3ccccc3F)S2)CC(C)(C)C1 (stereo unspecified),0.7
CC(=O)CC1c2cc(F)ccc2S(=O)(=O)N1c1ccc(N(C)C)cc1 (stereo unspecified),0.68
NC(=NOC(=O)Nc1ccc(Cl)cc1)c1ncc(C(F)(F)F)cc1Cl,0.62
COC(=O)[C@]1(C)NC(c2ccc(-c3ccc(F)cc3)cc2)C2C(=O)N(C)C(=O)C21 (stereo partly specified),0.68
